Screens as filed in PubChem.
Rce1 inh: yeast Rce1p protease inhibitors, primary screen, biochemical, fluorescence, cell-free homogeneous | calls only | AID 2563, 2010 | yeast membranes, quenched prenylated peptide cleavage fluorescence | hit rate 0.27% among 290,000;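 active = fall in fluorescence gain of 50% or more versus controls, with final raw signal at or below 3038400; inconclusive = same 50% fall but final raw signal above 3038400; inactive = fall in fluorescence gain under 50%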;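 also: plate controls were neutral control wells for no effect and wells lacking membranes for full effect; tested at 10 µM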
Target sequence (Q03530 whole entry, looked up): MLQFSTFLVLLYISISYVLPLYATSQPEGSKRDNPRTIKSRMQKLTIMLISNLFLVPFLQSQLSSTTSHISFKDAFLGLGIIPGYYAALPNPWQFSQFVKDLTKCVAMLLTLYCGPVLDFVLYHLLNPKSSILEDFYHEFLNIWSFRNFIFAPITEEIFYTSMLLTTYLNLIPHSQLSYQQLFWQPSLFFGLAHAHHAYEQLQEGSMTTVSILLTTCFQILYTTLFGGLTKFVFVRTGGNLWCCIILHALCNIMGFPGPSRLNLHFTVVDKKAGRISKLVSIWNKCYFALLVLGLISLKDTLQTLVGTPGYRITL
CSC inhib: cancer stem cell viability inhibitors, primary screen, luminescence; cancer stem cell-like cells viability; inhibition, % at 7.5 µM; hit rate 1.1% among 300,000; AID 2717, 2010;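 active = mean at 75% or more and at least half the replicates too; inconclusive = mean and replicates disagree; tested in HMLE shEcad cells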;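 also: 0% = median of negative and 100% = median of positive control wells; the first replicate is given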
PABP FP inh: PABP poly(A) RNA binding inhibitors, primary screen, biochemical, fluorescence polarization, uHTS | inhibition, % at 35 µM | hit rate 1% among 290,000 | AID 2014, 2009;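 active = 50% or more with normal probe brightness, or confirmed in later tests; inconclusive = above 50% with abnormal brightness, or retests that disagree; inactive = below 50% or failed in later tests; about a fifth of its hits are not listed in these tables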;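 also: calls also rest on retests at 20 µM and on dose response follow-up; controls were probe without protein and protein plus probe with vehicle; some compounds called inactive have numbers as strong as hits; many hits fall short of the cut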
Target sequence (P11940 whole entry, looked up): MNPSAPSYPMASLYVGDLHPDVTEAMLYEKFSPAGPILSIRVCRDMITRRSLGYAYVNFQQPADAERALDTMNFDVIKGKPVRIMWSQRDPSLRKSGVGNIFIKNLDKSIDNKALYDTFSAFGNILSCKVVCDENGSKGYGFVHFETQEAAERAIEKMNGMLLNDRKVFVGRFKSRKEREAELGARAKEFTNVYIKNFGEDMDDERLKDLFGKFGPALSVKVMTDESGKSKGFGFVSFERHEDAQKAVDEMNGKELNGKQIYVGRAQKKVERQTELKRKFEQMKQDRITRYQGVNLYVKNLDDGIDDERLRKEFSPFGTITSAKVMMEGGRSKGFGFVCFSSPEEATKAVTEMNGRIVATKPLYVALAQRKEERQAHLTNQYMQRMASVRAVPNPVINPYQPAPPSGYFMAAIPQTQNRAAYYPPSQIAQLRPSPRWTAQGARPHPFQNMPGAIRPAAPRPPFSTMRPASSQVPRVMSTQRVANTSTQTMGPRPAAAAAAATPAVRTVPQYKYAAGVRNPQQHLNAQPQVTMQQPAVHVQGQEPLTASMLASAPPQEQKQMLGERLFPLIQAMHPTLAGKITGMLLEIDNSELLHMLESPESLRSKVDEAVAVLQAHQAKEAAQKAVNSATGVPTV
HIV Env fusion: inhibitors of HIV-1 Env-driven cell-cell fusion, primary screen, HeLa-JRFL effector, CEM21 target cells, luciferase. AID 651610, 2012. hit rate 1.1% among 360,000. inhibition, % at 12.3 µM;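 active = mean replicate inhibition score of at least 50 and every replicate individually at or above 50; inconclusive = only one of the two criteria met; inactive = mean below 50 and not all replicates reaching 50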;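 also: 0% = plate neutral controls and 100% = maraviroc near 300 nM; one replicate is shown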
eIF4H FP inh: human eIF4H binding inhibitors, primary screen, translation initiation inhibitor project, biochemical, uHTS, fluorescence polarization | eIF4H fluorescence polarization binding assay | hit rate 0.94% among 290,000 | AID 2012, 2009 | Eukaryotic translation initiation factor 4H (Homo sapiens), Q15056 | inhibition, % at 35 µM;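 active = 50% or more with normal probe brightness, or confirmed in later tests; inconclusive = above 50% with abnormal brightness, or retests that disagree; inactive = below 50% or failed in later tests; about a fifth of its hits are not listed in these tables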;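 also: calls also rest on retests at 20 µM and on dose response follow-up; 0% = protein and probe with vehicle and 100% = probe without protein; strong numbers were not always called active; many hits fall short of the cut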
MT1-MMP act inh: blockers of MT1-MMP proenzyme processing, primary screen, HT1080 RFP-PRO-GFP cells, GFP/RFP fluorescence. GFP/RFP ratio fluorescence, overnight; percent of plate control window, DMSO zero. GFP/RFP ratio change, % at 20 µM. hit rate 0.061% among 360,000. AID 651647, 2012;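 active = GFP/RFP ratio change of at least 30% with cell ATP level not reduced by more than half and red fluorescence within 50% of control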; also: strong numbers were not always called active
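Compound: 20 µM single dose, 1% DMSO / System: HT1080 RFP-PRO-GFP cells / Controls: DMSO and RFP-L50D-GFP cell wells / Read-out basis: GFP/RFP fluorescence ratio / Schedule: overnight compound exposure at 37 °C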
Yeast UUG start: modulators of yeast start codon fidelity, primary screen, whole organism, S. cerevisiae, single point, plate reader; S. cerevisiae UUG-firefly luciferase reporter, luminescence/redox ratio; activity score, % at 18.7 µM; hit rate 0.13% among 350,000; AID 602363, 2012;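 active = replicate mean at a twofold rise or more, about +100% in these data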;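 also: firefly luciferase made from a UUG start codon reports start codon fidelity; reporter light over untreated wells divided by growth signal over untreated wells; some hits fall short of that in this replicate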
eIF4H FP inh retest: further read-out of eIF4H FP inh, marked with its call; inhibition, %; compound at 20 µM; confirmation average;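 mean of two retest wells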
PABP FP inh retest: also measured in PABP FP inh; calls as there; inhibition, %; compound at 20 µM; confirmation repeats;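 mean of two retest wells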
MT1-MMP act inh RFP: also measured in MT1-MMP act inh; calls as there; RFP signal change, %; measured here: RFP expression control read;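 0 = vehicle wells; hits needed this value within 50% of zero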
An asterisk follows results filed as active; i = inactive; u = inconclusive; x = no result given.

SMILES | Rce1 inh | CSC inhib | PABP FP inh | HIV Env fusion | eIF4H FP inh | MT1-MMP act inh | MT1-MMP act inh RFP | Yeast UUG start | others
CON/C=N/C(=S)Nc1ncc(C(F)(F)F)cc1Cl | i | -2 | 6 | -14 | -8 | -15 | -12 | x
Nc1c(C(=O)O)sc2nc(-c3ccccc3)cc(-c3ccc(Cl)cc3)c12 | i | 29 | 13 | 8 | 12 | 11 | -2 | 40
CCn1c(=O)[nH]c2cc(Cl)c(Cl)cc21 | x | -9 | x | 34 | x | -4 | -1 | -16
CCOC(=O)c1c(Cc2cccc(Cl)c2)c[nH]c1C | i | x | -18 | -1 | -7 | 1 | -8 | x
CCCNC(=O)c1ccc(N2CCC3(CC2)CC(c2ccccc2)=NO3)c(NC(=O)Cc2ccc(F)cc2)c1 | i | 5 | 5 | u | -4 | 5 | -1 | 5
S=C(NCc1ccncc1)Nc1ccccc1 | i | -17 | 5 | 8 | -9 | 4 | 4 | -9
CCCCC(=O)Nc1ccc(C(=O)N2CCN(c3ccccc3OC)CC2)cc1 | i | -4 | -6 | 4 | -6 | -1 | 0 | 6
CC(=O)Nc1ccc(NC(=O)C(NS(=O)(=O)c2ccc3c(c2)OCCO3)C(C)C)cc1 (stereo not drawn) | x | -2 | x | x | x | -5 | 0 | -7
O=C(CSC(=S)N1CCCC1)N1CCN(S(=O)(=O)c2ccccc2F)CC1 | i | -7 | x | 4 | x | 1 | 2 | -23
CC(OC(=O)c1ccc(-n2cnnn2)cc1)C(=O)Nc1ccc(F)c(F)c1F (stereo not drawn) | x | -8 | x | x | x | 1 | 1 | -20
CC(C)=CCC/C(C)=C/CNC(=O)C[C@H]1C[C@H](C(=O)N2CCCCC2)[C@@]2(C)c3[nH]c4cc(-c5ccco5)ccc4c3CCN2C1=O | x | x | x | -9 | x | -5 | -12 | -26
CCOC(=O)c1sc2nc(COC(=O)c3c(F)cccc3F)[nH]c(=O)c2c1C | i | -10 | 2 | -20 | 22 | -27 | 2 | -19
CCOC(=O)NN1C(=O)c2ccccc2NC1C (stereo not drawn) | i | -2 | -5 | 1 | 3 | 0 | 1 | -13
CCC(=O)Nc1ccc(Cl)c(NC(=O)c2cccc(OC)c2)c1 | i | 4 | 4 | 8 | 4 | 6 | 6 | x
COc1ccc(-c2nc3ccc(C)cn3c2Cc2cccc(F)c2)cc1OC | x | x | x | 6 | x | -3 | -1 | 38
Cc1cccc(N2C(=O)C=CC2=O)c1 | x | x | x | -7 | x | -2 | 3 | -11
O=C(c1cc2cccc([N+](=O)[O-])c2oc1=O)N1CCOCC1 | i | -10 | -13 | -19 | -4 | 2 | 0 | -22
CCCCc1ccc(-c2c(C#N)c(N)nc3c2CCCC3)s1 | i | -2 | 6 | x | -8 | -3 | -3 | -1
CCc1ccc(-c2cc(N)n(-c3ccccc3)n2)cc1 | i | x | -9 | -209 | 5 | -5 | 6 | x
CCOC(=O)c1ccc(NC(=O)C2=C(C)Nc3nc(CCCO)nn3C2c2cccc(C)c2)cc1 (stereo not drawn) | i | 1 | 0 | 16 | 1 | 5 | 9 | -14
COCCCNC(=O)C[C@H]1C[C@H](C(=O)N2CCCCC2)[C@@]2(CCc3ccccc3)c3[nH]c4ccc(Cl)cc4c3CCN2C1=O | x | x | x | -22 | x | -26 | -28 | -12
N#C/C(=C\Nc1ccc2c(c1)OCCO2)c1nc(-c2ccccc2)cs1 | i | 36 | -5 | -1 | 21 | -3 | -2 | x
O=C(COc1ccccc1F)NCC(c1ccco1)N1CCCC1 (stereo not drawn) | i | 4 | -9 | -10 | -5 | -1 | 2 | x
Cc1onc(-c2ccccc2)c1C(=O)Nc1ccon1 | i | x | -10 | 15 | -1 | -1 | -2 | -10
CC(=O)Nc1ncc(Cc2ccc(Cl)cc2Cl)s1 | i | 2 | -3 | -12 | 3 | 4 | -2 | -18
COc1ccc([C@H]2CC(=O)C=C(c3ccc(-c4ccccc4)c(F)c3)C2)cc1 | x | 29 | x | -57 | x | 1 | 3 | -17
Cc1cc(C(=O)O)cc(S(=O)(=O)Nc2c(C)nn(C)c2C)c1C | x | -9 | x | -7 | x | -1 | 3 | -4
Cc1ccc(/C=N/NC(=O)Cc2c[nH]c3ccccc23)c(C)c1 | i | 31 | 10 | -53 | -3 | -4 | -3 | -10
CC1CN(Cc2ccc(C#N)cc2Cl)CC(C)O1 (stereo not drawn) | i | -6 | 15 | x | -7 | -5 | 3 | x
Nn1c(COc2ccccc2F)nnc1SCC(=O)NC1CC1 | i | 8 | x | -30 | x | 4 | 3 | -10

Next section; it opens with the three that closed the last part.
SMILES | Rce1 inh | CSC inhib | PABP FP inh | HIV Env fusion | eIF4H FP inh | MT1-MMP act inh | MT1-MMP act inh RFP | Yeast UUG start | others
Cc1ccc(/C=N/NC(=O)Cc2c[nH]c3ccccc23)c(C)c1 | i | 31 | 10 | -53 | -3 | -4 | -3 | -10
CC1CN(Cc2ccc(C#N)cc2Cl)CC(C)O1 (stereo not drawn) | i | -6 | 15 | x | -7 | -5 | 3 | x
Nn1c(COc2ccccc2F)nnc1SCC(=O)NC1CC1 | i | 8 | x | -30 | x | 4 | 3 | -10
Cc1nc(-c2ccc(Cl)cc2)sc1C1(C)CC(c2ccc(C#N)cc2)=NO1 (stereo not drawn) | i | 29 | 3 | 19 | -8 | 5 | -3 | -11
Cc1onc(-c2ccccc2)c1C(=O)N=C(N)c1ccc(C(F)(F)F)cc1 | i | 15 | 9 | -1 | 2 | 3 | 1 | -11
Cc1cc2cc(C)c(NCCNC(=O)c3ccccc3Cl)nc2cc1C | i | 11 | 12 | 9 | -4 | 3 | 1 | -12
N#Cc1ccc(OCC(O)CS(=O)(=O)c2ccccc2)cc1 (stereo not drawn) | i | -5 | -4 | -2 | -9 | -1 | 2 | -16
Cc1cccc(NC(=O)c2nc[nH]c2C(=O)NC[C@@H](C)O)c1 | x | x | x | 5 | x | 1 | 3 | -7
C=CCn1c(C)csc1=Nc1ccccc1C | i | x | -12 | -12 | -1 | 0 | -2 | -13
Cc1cccc(N2CCN(C(=O)C3CCN(S(=O)(=O)c4cnc[nH]4)CC3)CC2)c1C | i | -1 | -2 | -4 | -4 | 2 | -3 | -11
CCS(=O)(=O)N1CCN(Cc2ccccc2OC)CC1 | i | 2 | 0 | x | -11 | 6 | 2 | -3
Cc1nnc(SCC(=O)NC(C)(C)C)n1NCc1cccc(Br)c1 | i | -8 | -11 | 4 | 3 | 2 | 0 | -17
COc1ccc(C(=O)COC(=O)COc2ccc(C)c(C)c2)cc1 | i | 0 | -8 | 6 | -3 | 5 | 14 | -16
CC1=NN(C(N)=S)C(=O)C1N=Nc1ccccc1O (stereo not drawn) | i | 6 | 2 | 11 | 18 | 8 | 19 | -4
CCOC(=O)c1nnn(CC(=O)NC(=O)Nc2ccccc2)c1C(=O)OCC | i | -5 | -13 | -15 | -1 | 1 | 1 | x
CCn1c(=O)c([N+](=O)[O-])c(NCCc2ccccc2)c2ccccc21 | i | -10 | 9 | x | -7 | 7 | -6 | -4
CN(C)C(=O)c1ccc(NC(=O)c2sccc2-c2ccccc2)cc1 | i | -4 | 29 | 1 | 25 | -5 | -1 | -4
O=C(O)CCc1ccc(-c2ccc(Br)cc2)n1NC(=O)c1ccc([N+](=O)[O-])cc1 | i | -4 | 6 | 20 | -2 | 1 | 4 | -14
OC[C@H]1O[C@@H](c2nc(-c3ccc(C4OCCO4)cc3)no2)[C@H](O)[C@@H]1O | x | x | x | -16 | x | 2 | 6 | -34
CSCC(=O)N1CCC(n2nccc2NC(=O)c2ccc3c(c2)OCO3)CC1 | i | -6 | 5 | -13 | 8 | 4 | 12 | 1
C=CCSc1nnc2c(n1)-c1cccc3cccc-2c13 | i | 3 | x | -10 | x | -1 | 4 | -22
COc1ccc(NC(=O)c2cc3c(-c4ccc(OC)c(OC)c4)nn(C)c3s2)cc1OC | i | 43 | 12 | -15 | 13 | 7 | -24 | -18
CCOC(=O)CSc1nc(-c2ccccc2)nc2ccc(F)cc12 | i | 2 | -7 | -33 | 5 | 1 | 2 | -9
CCn1c(SC(=O)NC2CCCCC2)nnc1-c1cccs1 | i | 16 | 1 | -14 | -4 | 4 | 1 | -23
CC(=O)Nc1cc(-c2ccc(C(=O)N3CCOCC3)cc2)cn2c(-c3ccc(C(C)=O)cc3)cnc12 | x | x | x | -11 | x | 0 | 1 | -5
CC(=O)CCc1c(C)c2cc(C)ccc2[nH]c1=O | i | 10 | 0 | x | 6 | -3 | 0 | -4
O=C(CCSCCC(=O)NCc1cccs1)NCc1cccs1 | i | -10 | -4 | x | 6 | 0 | 3 | -8
Cc1noc(C)c1NC(=O)Nc1cccc2c1O[C@H](CN(C)S(=O)(=O)c1ccccc1)[C@@H](C)CN([C@H](C)CO)C2=O | x | x | x | -44 | x | -1 | -1 | 3
CCC(C)[C@H]1CNCCN1CCCc1cc(OC)c(OC)c(OC)c1 (stereo partly drawn) | i | 4 | x | 16 | x | 3 | 3 | -11
CCOC(=O)CC(NC(C)=O)c1ccc([N+](=O)[O-])cc1 (stereo not drawn) | i | 8 | -11 | 1 | -6 | 4 | 6 | -3
CC1C(=O)Nc2ccc(S(=O)(=O)NCc3ccc(Cl)cc3)cc2NC1=O (stereo not drawn) | i | x | -5 | -59 | -5 | 8 | -6 | 5
CC1(C)ON(C2CCCCC2)[C@H]2c3nc4ccccc4n3C[C@H]21 | i | -10 | -1 | 10 | 0 | 0 | 2 | -23
CN(CC(=O)Nc1ccc(F)c(F)c1F)C(=O)CCCc1nc2ccccc2c(=O)[nH]1 | x | -7 | x | -11 | x | -4 | -2 | -3
Cc1nc(CC(=O)N/N=C/c2ccc(OCC(=O)O)cc2)cs1 | i | 22 | 17 | 10 | 7 | 10 | 3 | x
CCN(CC)C(=O)C(Sc1ccccc1)c1ccccc1 (stereo not drawn) | i | 5 | -4 | -12 | -4 | 3 | 3 | -3
Cc1ccccc1CN1CCN(C(C)C(=O)NCc2ccccc2)CC1 (stereo not drawn) | i | -13 | 8 | 4 | 2 | 2 | 4 | -1
CC12CCC(O)CC1=CCC1C2CCC2(C)C1CCC21CCC(=O)O1 (stereo not drawn) | i | -7 | 66* | x | 12* | 6 | -13 | -10 | eIF4H FP inh retest=92*;PABP FP inh retest=90*
CCCc1nn2c(-c3ccccc3)nnc2o1 | x | x | x | 10 | x | 0 | 2 | -16
Cc1cccc(C)c1NC(=O)/C(C#N)=C/c1ccsc1 | i | 10 | 2 | x | -5 | 0 | 2 | x
COC(=O)c1ccc2c(=O)[nH]c(CSc3nc(C)cs3)nc2c1 | i | 8 | -11 | -15 | -6 | -3 | 0 | 1
CC(C)(C)OC(=O)NC(Cc1ccccc1)C(=O)NC(CSC1CCCCO1)C(=O)NN (stereo not drawn) | i | -3 | 1 | 6 | 2 | 0 | 1 | -20

This is a subset (hit frequency here may not be typical).
